Screening data from PubChem.
GIRK2 act = activators of human GIRK2 potassium channels; P48051; AID 1259325; HEK293-GIRK2 thallium flux, Thallos fluorescence; calls only for hits at 25 µM; actives 0.05% (n = 63,000);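 active = among the strongest 0.2% of first-round signals and kept after retests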;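 note: first round at about 10 µM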
Target sequence (P48051 whole entry, looked up): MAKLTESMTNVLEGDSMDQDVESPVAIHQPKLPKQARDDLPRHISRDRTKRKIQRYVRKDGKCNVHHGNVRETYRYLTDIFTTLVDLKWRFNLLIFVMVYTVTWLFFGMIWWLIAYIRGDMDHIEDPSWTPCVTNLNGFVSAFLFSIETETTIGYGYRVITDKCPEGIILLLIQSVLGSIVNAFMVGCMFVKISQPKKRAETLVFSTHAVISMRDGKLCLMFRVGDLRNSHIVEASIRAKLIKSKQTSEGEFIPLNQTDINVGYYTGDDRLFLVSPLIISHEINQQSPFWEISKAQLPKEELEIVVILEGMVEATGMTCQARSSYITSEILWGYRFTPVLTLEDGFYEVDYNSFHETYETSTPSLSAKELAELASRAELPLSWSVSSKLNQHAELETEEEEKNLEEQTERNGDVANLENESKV
Calls only; i = inactive. These rows are one share of the data, so the mix of outcomes need not match the whole.

item	Molecule	GIRK2 act
1	O=C(CN1CCN(Cc2cccc(C(F)(F)F)c2)CC1)c1ccco1	i
2	CSCC(C)(O)CNC(=O)C(c1ccccc1)c1ccccc1 (centres undefined)	i
3	O=C(CCCc1ccccc1)NC1CC(O)C(CO)C1 (centres undefined)	i
4	COc1cc2[nH]c3c(=O)n(CC(=O)NCc4ccc(F)cc4F)cnc3c2cc1OC	i
5	CS(=O)(=O)Nc1ccc(-c2ccc3c(NC(=O)C4CC4)n[nH]c3c2)cc1	i
6	Cc1ccc(NC(=O)C(=O)NCCCN2CCOCC2)cc1F	i
7	O=C(Cc1ccc(NC(=O)C2COc3ccccc3O2)cc1)NCc1cccs1 (centres undefined)	i
8	O=C1/C(=C/c2ccc3c(c2)OCO3)Oc2c1ccc1c2CN(CC2CCCO2)CO1 (centres undefined)	i
9	Cc1cc(N2CCN(C(=O)Nc3ccc(F)c(Cl)c3)CC2)ncn1	i
10	COc1c(C)cnc(Cn2ccn3nc(-c4cccs4)cc3c2=O)c1C	i
11	CCc1noc(-c2ccc(SCC(=O)Nc3ccc(NC(C)=O)cc3)nc2)n1	i
12	COc1ccc(F)cc1S(=O)(=O)NCCC(O)c1ccc2c(c1)OCO2 (centres undefined)	i
13	COc1ccc(NC(=O)CSc2ncccc2-c2nc(C)no2)cc1Cl	i
14	Cc1cccc(NC(=O)CSc2nc(C)c(Cc3ccccc3)c(=O)[nH]2)c1	i
15	CC(C)(C)C(O)CCNS(C)(=O)=O (centres undefined)	i
16	O=C(Cc1noc2ccccc12)NCCn1ncc2c(NCc3ccc(F)cc3)ncnc21	i
17	O=C(/C=C/c1ccco1)N1CCN(C(=O)C2CC2c2cccs2)CC1 (centres undefined)	i
18	CCN1CC(c2nc3ccccc3n2Cc2c(Cl)cccc2Cl)CC1=O (centres undefined)	i
19	CCn1c(C)c(C(C)=O)c2cc(OCC(O)CN3CCCCC3)ccc21 (centres undefined)	i
20	Cn1nc(-c2ccc(F)cc2)cc1C(=O)NCc1ccsc1	i
21	NS(=O)(=O)c1ccc(CCNC(=O)c2csc(-c3cnccn3)n2)cc1	i
22	CNC(=O)CCc1csc(NC(=O)c2ccc(F)cc2)n1	i
23	O=C(C1CC1)N1CCC(CSC2=NCCS2)CC1	i
24	Cc1n[nH]c(C)c1NC(=O)CCC(=O)O	i
25	O=C(Cn1cc(S(=O)(=O)N2CCCCCC2)ccc1=O)Nc1ccccc1	i
26	CCCCOc1ccc(NC(=O)NCCC(O)c2cc(C)oc2C)cc1 (centres undefined)	i
27	CCSc1nnc(NC(=O)c2cc(-c3ccccc3)oc2C)s1	i
28	COC(=O)Cn1c(=O)c2c(N3CCN(C(=O)c4ccco4)CC3)ccnc2n(C)c1=O	i
29	COC(=O)c1ccccc1NC(=O)CN1CCCN(Cc2cccc(C)c2)S1(=O)=O	i
30	COc1ccc(CCNC(=O)N2CCCC(COCc3ccccc3)C2)cc1 (centres undefined)	i
31	CCN(CC)Cc1ccc2cc(COC(=O)Nc3ccc(C(=O)NO)cc3)ccc2c1	i
32	CCOc1ccc(NC(=O)C2Cc3ccc(Cl)cc3C(=O)O2)cc1 (centres undefined)	i

Ordered by formula weight (descending): some entries from above.
item	Molecule	GIRK2 act
7	O=C(Cc1ccc(NC(=O)C2COc3ccccc3O2)cc1)NCc1cccs1 (centres undefined)	i
26	CCCCOc1ccc(NC(=O)NCCC(O)c2cc(C)oc2C)cc1 (centres undefined)	i
22	CNC(=O)CCc1csc(NC(=O)c2ccc(F)cc2)n1	i

Next part:
item	Molecule	GIRK2 act
33	COc1ccc(C(=O)Nc2cc(C)nn2-c2nc(-c3ccccc3)cs2)cc1	i
34	O=C(CN1CC(c2nc(-c3ccco3)no2)C1)Nc1ccc(Br)cc1	i
35	O=S(=O)(NCCOc1ccc2c(c1)OCO2)c1ccccc1C(F)(F)F	i
36	CSc1cccc(NC(=O)Cn2nc3c(SCc4ccc(Cl)cc4)nccn3c2=O)c1	i
37	O=[N+]([O-])c1cccc2cn[nH]c12	i
38	O=C(C1CC1)N1CCN(CC(O)c2ccco2)CC1 (centres undefined)	i
39	CN(C)S(=O)(=O)c1ccc(C(=O)NCc2cnn3ccccc23)cc1	i
40	Cn1cccc1CN(Cc1cccs1)C(=O)/C=C/c1ccc2c(c1)OCO2	i
41	O=C(Nc1ccc(N2CCCS2(=O)=O)cc1)OCc1ccccc1	i
42	COC(=O)N1CCC(CNC(=O)c2cc3cccc(OC)c3o2)CC1	i
43	CC(=O)NC1=NN(C(C)=O)C2(S1)C(=O)N(CCOc1ccccc1)c1c(Cl)cccc12 (centres undefined)	i
44	Cn1nc(-c2ccc(F)cc2)cc1C(=O)NCC1CCN(S(C)(=O)=O)CC1	i
45	COc1ccc(N2CCN(CCNC(=O)c3ccno3)CC2)cc1	i
46	CCOc1ccc(-c2cc3c(=O)n(CC(=O)NC4CCCC4)ccn3n2)cc1	i
47	Cc1ccc2c(c1)C(=O)NC1(CCN(C(=O)c3ccccc3)CC1)N2C	i
48	CCC1CCCCN1C(=O)c1cnc2nc(C)ccc2c1Nc1ccc(C(C)=O)cc1 (centres undefined)	i
49	O=C(Nc1c(F)cccc1F)N1CCN(Cc2nnnn2-c2ccc(Cl)cc2)CC1	i
50	CCS(=O)(=O)NCC#CCOc1ccc2c(c1)OCO2	i
51	CCOC(=O)Cc1csc(NC(=O)CN2CCC(Cn3cnc4ccccc43)CC2)n1	i
52	O=C(NCCC(O)C1CC1)C(=O)NCC(F)(F)F (centres undefined)	i
53	O=C(NC(c1ccccc1)c1ccccc1)N1CCC(c2ccccc2)C1 (centres undefined)	i
54	Cc1ccc(NC(=O)c2cccc(C(F)(F)F)c2)cc1N1CCCC1=O	i
55	CCOCCCn1c(C)cn2c3c(=O)n(CCc4ccccc4)c(=O)n(C)c3nc12	i
56	O=C(Nc1n[nH]c2nc(-c3ccc(O)cc3)c(Br)cc12)C1CC1	i
57	O=C(NCc1ccc(F)cc1)C(=O)NCC1(c2ccccc2)CCOCC1	i
58	COC(=O)c1cccc(NC(=O)Cn2nc3c(SCc4ccc(Cl)cc4)nccn3c2=O)c1	i
59	O=C(CC1CCCC1)N1CCN(c2ncnc3c2nnn3-c2ccc(Cl)cc2)CC1	i
60	O=C(CSc1nnc2ccccn12)c1ccc(Oc2ccccc2)cc1	i
61	COCCOCC1CCN(C(=O)c2cc(-c3cccc(OC)c3)n[nH]2)CC1	i
62	O=C(NCc1ccccc1OC(F)(F)F)C1COCC(=O)N1Cc1ccccc1 (centres undefined)	i
63	Cc1sc(NC(=O)Cc2ccccc2)c(-c2nc3ccccc3s2)c1C	i
64	COc1ccc(C2Oc3ccccc3C3=C2C(c2cccnc2)n2nnnc2N3)cc1OC (centres undefined)	i
65	Cc1ccc(Cl)cc1NC(=O)C(=O)NCc1ccncc1	i
66	CN1CCN(c2cc(NC(=O)c3cc(Br)ccc3Cl)ncn2)CC1	i
67	COc1ccc(-c2n[nH]c(C(F)(F)F)c2-c2ccccc2OC)c(O)c1	i
68	CCOc1ccccc1NC(=O)NCCn1ncccc1=O	i
69	COc1ccc(CCNC(=O)Cn2cnc3c([nH]c4cc(OC)c(OC)cc43)c2=O)cc1OC	i
70	C=CCCC(=O)Nc1ccc2c(c1)C(=O)NCC2	i
71	CCOC(=O)N1CCN(Cc2cc(=O)oc3ccc(C(C)C)cc23)CC1	i
72	CCn1c(C2CC(=O)N(c3cccc(C)c3)C2)nc2ccccc21 (centres undefined)	i
73	Oc1cccc(-c2nc(-c3ccccc3)[nH]c2-c2ccncc2)c1	i
74	COc1ccccc1-c1noc(-c2sccc2S(=O)(=O)N(C)c2cccc(Cl)c2)n1	i
75	O=C(c1nc2ccccc2s1)N1CCCC(c2nnc(-c3ccccc3F)s2)C1 (centres undefined)	i
76	CCC(C(=O)N(CCOC)Cc1ccoc1)c1ccccc1 (centres undefined)	i
77	COc1ccc(N2CCCn3c2nc2c3c(=O)n(CCN3CCOCC3)c(=O)n2C)cc1	i
78	Cn1c(=O)c(C(=O)N2CCc3ccccc32)cc2cccnc21	i
79	O=C(CSCc1ccccc1)N1CCC(CSC2=NCCS2)CC1	i
80	O=C(NCC(O)c1ccoc1)C1(c2ccc(Cl)cc2)CCCC1 (centres undefined)	i
81	CCc1cnc2c(c1SCC(=O)Nc1cccc(F)c1)c(=O)n(C)c(=O)n2C	i
82	Cc1ccc(S(=O)(=O)c2c(C)cc(C)n(CC(=O)NCc3ccccc3Cl)c2=O)cc1	i
83	CCN(CC)CCN1C(=O)c2oc3ccccc3c(=O)c2C1c1ccc([N+](=O)[O-])cc1 (centres undefined)	i
84	CC(C)c1ccc(NC(=O)C(=O)NCCc2ccc3c(c2)CCCN3C)cc1	i
85	Cc1ccc(OCC(O)CNC(C)(C)CC(C)(C)C)cc1 (centres undefined)	i
86	O=S(=O)(c1ccc2c(c1)OCCO2)N1CCC(CSCc2ccco2)CC1	i
87	Cn1nc(CNS(=O)(=O)Cc2cc(F)ccc2F)cc1-c1cccs1	i
88	CCCOC(=O)c1ccc(N/C=C(\C#N)c2nc(-c3cccc([N+](=O)[O-])c3)cs2)cc1	i

More entries
item	Molecule	GIRK2 act
89	Fc1ccc(-c2nc3n(c2-c2ccncc2)CCS3)cc1	i
90	COc1cccc(-n2ccc(=O)c(-c3nc(-c4ccc(OC)c(OC)c4)no3)n2)c1	i
91	Cc1cc(C)cc(C(=O)NC2CCN(C(=O)c3cc(-c4ccccc4C)n[nH]3)CC2)c1	i
92	CC(O)Cn1c(N2CCCC(C)C2)nc2c1c(=O)[nH]c(=O)n2C (centres undefined)	i
93	COc1ccc(S(=O)(=O)N2CCCOC2CNC(=O)C(=O)NCc2ccc(C)cc2)cc1C (centres undefined)	i
94	CCCNC(=O)COc1coc(CN2CCN(c3cccc(Cl)c3)CC2)cc1=O	i
95	COCCn1c(=O)c2c(nc3n2CC(C)CN3c2ccc(C)c(C)c2)n(C)c1=O (centres undefined)	i
96	CN(C)S(=O)(=O)c1ccc(C(=O)NCc2cc(-c3ccco3)n(C)n2)cc1	i
97	OC[C@H]1O[C@@H](n2cnc3c(NC4CCCC4)nc(Cl)nc32)[C@@H](O)C1O (some centres undefined)	i
98	Cc1cccc(NC(=O)NCCNc2cc(Nc3ccccn3)ncn2)c1C	i
99	O=C(NC1CCCCC1)N(CCc1cccs1)Cc1cccnc1	i
100	COc1ccc(-c2c(NC(=O)CC(C)C)oc3c(C)cccc3c2=O)cc1OC	i
101	O=C(CN1CCC(c2nnc(-c3ccsc3)o2)CC1)c1ccc(Cl)cc1	i
102	COc1ccc(Cl)cc1CN1CCN(c2cc(C)nc3c4c(C)cc(C)nc4nn23)CC1	i
103	Cc1nc(-c2ccc(N3CCN(C(=O)CSC4CCCC4)CC3)nc2)no1	i
104	CCOc1ccc(NC(=O)Nc2cnc(N(C)C)nc2)cc1	i
105	O=C(Nc1nc2ccc(Br)cc2s1)NC1CCCC1	i
106	Cn1c(C2CCC(CNC(=O)c3ccsc3)CC2)nc2ccccc21 (centres undefined)	i
107	CCOC(=O)N1CCN(/C=C(\C#N)c2nc3ccccc3s2)CC1	i
108	COc1ccc(C2(C)NC(=O)N(CC(=O)NC3CCCCC3)C2=O)cc1 (centres undefined)	i
109	O=C(C1CC(=O)N(c2ccc(Cl)cc2)C1)N1CCC(Oc2cnccn2)CC1 (centres undefined)	i
110	CCOc1ccc(C(=O)N2CCc3cc(S(=O)(=O)NC4CCCC4)ccc32)cc1	i
111	CN(C)C(CNS(=O)(=O)Cc1ccc(F)cc1)c1ccccc1Cl (centres undefined)	i
112	CSc1ccccc1C(=O)N1CCN(S(=O)(=O)C2CC2)CC1	i

Another view of 4 compounds above:
#106 Cn1c(C2CCC(CNC(=O)c3ccsc3)CC2)nc2ccccc21 (centres undefined)
  GIRK2 act: i
#108 COc1ccc(C2(C)NC(=O)N(CC(=O)NC3CCCCC3)C2=O)cc1 (centres undefined)
  GIRK2 act: i
#107 CCOC(=O)N1CCN(/C=C(\C#N)c2nc3ccccc3s2)CC1
  GIRK2 act: i
#105 O=C(Nc1nc2ccc(Br)cc2s1)NC1CCCC1
  GIRK2 act: i

(listing goes on)
item	Molecule	GIRK2 act
113	Cn1nc(C(=O)N2CCC(Oc3nc4c(F)cccc4s3)CC2)ccc1=O	i
114	O=c1c(-c2nc(C3CC3)no2)cccn1Cc1noc(-c2ccccc2F)n1	i
115	CCOC(=O)N1CCN(C(c2ccc(F)c(F)c2)c2sc3nc(C)nn3c2O)CC1 (centres undefined)	i
116	O=C(c1cc(=O)c2ccccc2o1)N1CCC(CSc2ccccn2)CC1	i
117	O=C(c1ccc(-n2cccn2)nn1)N1CCN(c2ccc(F)cc2)CC1	i
118	CC(C)(C)c1ccc(C(=O)Nc2ccc(-n3nnc(C(=O)NC4CCCC4)n3)cc2)cc1	i
119	Cc1ccc(C(=O)NC2CCN(C(=O)c3cn(-c4cccc(Cl)c4)nn3)CC2)cc1C	i
120	Cc1cc(CNC(=O)Nc2c(F)cccc2F)c(C)o1	i

In the list so far, 3 have a tert-butyl group.
item	Molecule	GIRK2 act
15	CC(C)(C)C(O)CCNS(C)(=O)=O (centres undefined)	i
85	Cc1ccc(OCC(O)CNC(C)(C)CC(C)(C)C)cc1 (centres undefined)	i
118	CC(C)(C)c1ccc(C(=O)Nc2ccc(-n3nnc(C(=O)NC4CCCC4)n3)cc2)cc1	i

Later entries:
item	Molecule	GIRK2 act
121	O=C(/C=C/c1cccs1)N1CCN(CCn2ccnc2)CC1	i
122	CCCCCOc1ccc(NC(=O)C(C)(C)C)cc1	i
123	COc1cccc(Cn2cccc(-c3nc(C)no3)c2=O)c1	i
124	Cc1ccc(C)c(N2CCN(C(=O)Cn3cnc4c([nH]c5ccc(C)cc54)c3=O)CC2)c1	i
125	COc1ccc(OCC(=O)Nc2cc(C3CC3)nn2-c2nc(C)cc(=O)[nH]2)cc1	i
126	CCOC(=O)c1cccc(NC(=O)Cn2ncc3c(c2=O)N(C)C(=O)CS3)c1	i
127	Cc1cc(C)c2nc(N(CCCn3ccnc3)C(=O)c3cccs3)sc2c1	i
128	CN1CCc2c(sc(NC(=O)c3cccc(C(F)(F)F)c3)c2-c2nc3ccccc3s2)C1	i
129	Cc1cc(C(F)(F)F)nc(CCNC(=O)c2cc(C)oc2C)n1	i
